Assay outcomes deposited in PubChem BioAssay by National Center for Advancing Translational Sciences (NCATS).
gsp antagonist: gsp mutant antagonism | gsp-mutant cells, cAMP HTRF, 30 min; control for the full effect not named in the record | Potency, µM (titrated, usually from 76.9 µM), for the others: top-dose activity change, negative = inhibition, actives largely listed as inhibitors | 340,000 tested, 0.4% active | AID 624288; active = falling curve of any shape with a large fitted effect; inconclusive = falling curve, mostly with a smaller effect; inactive = flat or rising curve; cell line not stated here;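 also: intracellular cAMP measured with PDE inhibitor Ro 20-1724 present during compound exposure; potency is read from the fitted curve at half-maximal effect; % is scaled to controls: 0 for no effect and ±100 for the full control effect; nearly all actives have a fitted effect of over 65% in size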
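Cells, 2000/well, grown 16–24 h in DMEM 10% FBS with 0.5 mg/ml G418, then compounds plus […] (300 uM addition stock), 30 min at 37C. cAMP read by HTRF (cAMP-d2 and anti-cAMP antibody-K in lysis buffer) after 30 min RT.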
Sfp PPTase inh: blocks B. subtilis Sfp PPTase activity; Q9F4F7; Biochemical Sfp PPTase activity, qHTS; Potency, µM, without a hit: max response, negative = inhibition, actives largely listed as inhibitors; 310,000 tested, 3.5% active; active = well fitted inhibition curve with a large enough effect; inconclusive = small, poorly fitted or top-dose-only effect, or another doubt; inactive = no such curve, though single readings can be large or run the other way;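 also: the enzyme is Sfp with the accession as filed and its product quenches rhodamine fluorescence; potency is read from the fitted curve at half-maximal effect; 0% = enzyme reaction without inhibitor and -100% = no enzyme wells; top concentration of the series not given in the record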
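Buffer: 50 mM Hepes-Na pH 7.6, 10 mM MgCl2, 0.01% Nonidet P-40, 0.01% BSA. Enzyme 15 nM, pre-exposed to compound 15 min; substrates then added and fluorescence change tracked over 30 min.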
ClpP mod: qHTS Assay for Activators of ClpP | ATP-dependent Clp protease proteolytic subunit (Bacillus subtilis (strain 168)), P80244 | purified B. subtilis ClpP, FRET peptide cleavage, 20 min | Potency, µM (series often up to 57.5 µM), for the others: top-dose activity change, negative = active | 340,000 tested, 1.9% active; active = well fitted falling curve with a large enough effect; inconclusive = small, poorly fitted or top-dose-only effect; inactive = no such curve, though single readings can be large or run the other way; also: potency is read from the fitted curve at half-maximal effect; the source files actives as falling curves though it sought activators and does not explain the sign; nearly all actives have a fitted effect of over 65% in size; many hits overshoot -100%
Target sequence (P80244 whole entry, looked up): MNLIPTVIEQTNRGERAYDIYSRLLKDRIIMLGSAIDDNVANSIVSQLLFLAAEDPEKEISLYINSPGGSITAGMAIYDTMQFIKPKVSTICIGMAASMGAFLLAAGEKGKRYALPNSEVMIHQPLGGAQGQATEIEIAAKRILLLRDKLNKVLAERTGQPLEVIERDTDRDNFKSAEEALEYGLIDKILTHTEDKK
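FRET quenching reversal measured ClpP activation: 10 microg/mL B. subtilis ClpP at pH 8 with the FRET-FV decapeptide, read at 430 nm after 320 nm excitation. The 20-min minus 0-min signal was scaled between DMSO/no-enzyme wells and ADEP (5.8 microM final).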
Menin MLL FP FL: displaces fluorescein MLL peptide from human menin; AID 1766; FP activity change, % at 61.4 µM; 290,000 tested, under 10 active; Fluorescence polarization, fluorescein-MLL peptide displacement from menin; inconclusive = falling polarisation curve, or a change in total fluorescence; inactive = total fluorescence flat and polarisation flat or rising; no compound was filed as active; the % refers to the polarisation; negative = inhibition;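 also: % of control where 0% means no effect; inhibitors lower the polarisation; unlabelled MLL peptide was the positive control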
CtBP-E1A inh: CtBP/E1A binding inhibition | AlphaScreen GST-E1A/His-CtBP binding, 1536-well; hits give low values; control for the full effect not named in the record | activity change, % (no concentration beside the values) | 340,000 tested, 0.49% active | AID 651724; in the data active means activity change below about -65%; inconclusive means about -30% to -65%; inactive means above about -30%; also: % is scaled to controls: 0 for no effect and ±100 for the full control effect; compound concentration not given in the record
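Protein mix (5X: 125 nM each GST-E1A, His-CtBP) was incubated with pinned compound 2 h at 37 deg C in dark, in 50 mM Tris pH 8.0 buffer with 300 mM NaCl. Glutathione donor and nickel acceptor beads followed; AlphaScreen signal read after 1 h.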
gsp ag: gsp mutant agonism. gsp mutant cells, cAMP HTRF, 30 min; control for the full effect not named in the record. Potency, µM (titrated, usually from 76.9 µM), inactives show top-dose activation (cAMP increase), most hits filed as activators. 340,000 tested, 0.13% active; active = well fitted activation curve with a large enough effect; inconclusive = small, poorly fitted or top-dose-only effect, or another doubt; inactive = no such curve, though single readings can be large or run the other way; cell line not stated here;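 also: phosphodiesterase inhibitor Ro 20-1724 added with compounds to block cAMP breakdown; potency is read from the fitted curve at half-maximal effect; nearly all actives have a fitted effect of over 60% in size; about a fifth of the inactives were tested at one dose only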
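Cells stably selected in G418 were plated at 2000/well, grown 16-24 hr, then given compounds in DMSO with the PDE inhibitor […] (300 uM solution added) for 30 min at 37C; cAMP was read by HTRF.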
TRPV1 PAM: enhances activation of the human vanilloid receptor TRPV1. Q8NER1. TRPV1-expressing cells, Fluo-8 calcium influx, capsaicin EC20 potentiation; host cell line not named in the record; control for the full effect not named in the record. potentiation, % at 8.33 µM. 320,000 tested, 0.02% active. AID 540277; active means potentiation above 80%; inconclusive means 30% to 80%; inactive means below 30%; also: 0% is about no effect
Target sequence (Q8NER1 whole entry, looked up): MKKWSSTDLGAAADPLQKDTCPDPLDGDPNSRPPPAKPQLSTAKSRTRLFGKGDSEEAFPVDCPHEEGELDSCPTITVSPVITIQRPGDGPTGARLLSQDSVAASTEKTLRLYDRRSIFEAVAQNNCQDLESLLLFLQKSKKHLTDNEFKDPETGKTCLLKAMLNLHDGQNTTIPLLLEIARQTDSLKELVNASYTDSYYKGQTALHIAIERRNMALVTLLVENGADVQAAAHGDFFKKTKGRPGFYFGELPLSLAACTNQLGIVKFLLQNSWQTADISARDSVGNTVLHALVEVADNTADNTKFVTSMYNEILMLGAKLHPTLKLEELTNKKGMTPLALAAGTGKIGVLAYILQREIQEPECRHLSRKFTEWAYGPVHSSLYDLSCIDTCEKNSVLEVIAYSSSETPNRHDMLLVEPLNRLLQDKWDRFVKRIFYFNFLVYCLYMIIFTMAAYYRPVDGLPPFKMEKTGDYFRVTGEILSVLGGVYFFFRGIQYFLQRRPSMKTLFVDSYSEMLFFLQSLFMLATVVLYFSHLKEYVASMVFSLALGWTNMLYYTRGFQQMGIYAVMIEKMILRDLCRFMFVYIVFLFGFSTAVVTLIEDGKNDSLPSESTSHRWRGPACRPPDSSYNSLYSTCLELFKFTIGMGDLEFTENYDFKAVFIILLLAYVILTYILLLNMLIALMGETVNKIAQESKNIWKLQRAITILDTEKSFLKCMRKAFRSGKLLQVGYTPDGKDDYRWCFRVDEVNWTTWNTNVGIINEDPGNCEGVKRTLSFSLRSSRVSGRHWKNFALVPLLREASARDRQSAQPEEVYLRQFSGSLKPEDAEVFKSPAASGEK
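Fluo-8 calcium influx in TRPV1-expressing cells, kinetic read (ex 480/em 520 nm). Compound added and read 3 min for agonist activity, followed by capsaicin at EC20 final and 2 min further read for enhancement.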
Starred values were filed as active, the others as inactive; [ ] = another dose, or the depositor's remark.

Screening Cc1cc(C)cc(N2C(=O)N(c3ccccc3C)C3CS(=O)(=O)CC32)c1 (stereo not drawn) returned gsp antagonist -9.5%, Sfp PPTase inh 17.1%, ClpP mod 1.1%, Menin MLL FP FL -0.3, CtBP-E1A inh 8.3, gsp ag -17.0% and TRPV1 PAM -24.0.
For CC(OC(=O)CNC(=O)C12CC3CC(CC(C3)C1)C2)C(=O)Nc1ncc(Cl)cc1Cl (stereo not drawn) the results were gsp antagonist -31.4%, Sfp PPTase inh 4.5%, ClpP mod -9.4%, Menin MLL FP FL 4.5, CtBP-E1A inh 5.6, gsp ag 10.2% and TRPV1 PAM -0.9.
Screening Cc1ccc(-n2c(O)c(C=NC3CCS(=O)(=O)C3)c3ccccc3c2=O)c(C)c1 (stereo not drawn) returned gsp antagonist 0.1%, Sfp PPTase inh 17.9%, Menin MLL FP FL 1.3, CtBP-E1A inh 8.8, gsp ag -4.4%[15.4 µM] and TRPV1 PAM 14.4.
COc1ccc(C(=O)OCC(=O)Nc2cccc(C(C)=O)c2)cc1OC was read as gsp antagonist -3.8%, Sfp PPTase inh 11.4%, Menin MLL FP FL inconclusive, CtBP-E1A inh 3.8, gsp ag 38.6% and TRPV1 PAM -2.7.
Screening COc1ccc(Nc2nc(-c3ccccc3)cs2)cc1 returned gsp antagonist 0.3%, Sfp PPTase inh 1.1%, ClpP mod -0.6%, Menin MLL FP FL -1.4, CtBP-E1A inh -12.8, gsp ag 18.1% and TRPV1 PAM 6.3.
Screening COc1ccc(C(=O)O)cc1NC(=S)NC(=O)/C=C/c1ccc(C(C)C)cc1 returned gsp antagonist -21.4%, Sfp PPTase inh -22.8%, Menin MLL FP FL -5.4, CtBP-E1A inh -2.7, gsp ag inconclusive and TRPV1 PAM 4.6.
`CC1(C)Cc2ccccc2C(/C(C#N)=N/O)=N1` gave gsp antagonist -6.9%, Sfp PPTase inh 9.4%, ClpP mod -0.3%, Menin MLL FP FL -3.9, gsp ag -8.6% and TRPV1 PAM 12.7.
CN(C)S(=O)(=O)N1CCC(Oc2cccc(C(=O)N3CCCCCC3)c2)CC1 was read as gsp antagonist 2.9%, Sfp PPTase inh 1.4%, ClpP mod -0.8%, CtBP-E1A inh 1.8, gsp ag -85.4%[inhibitor] and TRPV1 PAM 6.2.
Screening Cc1cc(C)nc(NS(=O)(=O)c2ccc(N/C=C\C(=O)c3ccc(Cl)cc3)cc2)n1 returned gsp antagonist -1.3%, Sfp PPTase inh 5.1%, ClpP mod -2.3%, Menin MLL FP FL 4.4, CtBP-E1A inh 15.0, gsp ag -31.8%[inhibitor] and TRPV1 PAM -16.3.
CCN(c1cccc(C)c1)c1nc2ccsc2c(=O)s1 was read as gsp antagonist -1.0%, Sfp PPTase inh -10.2%, ClpP mod -9.7%, Menin MLL FP FL -0.5, CtBP-E1A inh 70.4, gsp ag 1.8% and TRPV1 PAM -4.4.
Screening CCOc1ccc(NC(=S)c2ccc3ccccc3n2)cc1 returned gsp antagonist 3.3%, Sfp PPTase inh inconclusive, ClpP mod 1.3%, Menin MLL FP FL -3.1, gsp ag -53.9%[inhibitor] and TRPV1 PAM 1.1.
CC(C)CCNC(=O)c1ccc(Cl)c(NC(=O)Cc2ccccc2)c1 was read as Sfp PPTase inh 3.4%, Menin MLL FP FL 2.7 and TRPV1 PAM -30.5.
Screening O=C(Nc1cc([N+](=O)[O-])ccc1C(=O)NCCN1CCOCC1)c1ccccc1 returned gsp antagonist -10.0%, Sfp PPTase inh 12.1%, ClpP mod 0.9%, CtBP-E1A inh -3.6, gsp ag 4.9% and TRPV1 PAM -2.8.
Screening CCc1ccc(NC(=O)Nc2cc(C(=O)NCC3CCCO3)ccc2N2CC3CC(C2)c2cccc(=O)n2C3)cc1 (stereo not drawn) returned gsp antagonist -14.4%, Sfp PPTase inh 9.9%, ClpP mod -0.1%, Menin MLL FP FL 0.5, CtBP-E1A inh 0.0, gsp ag -38.9%[inhibitor] and TRPV1 PAM 8.2.
Screening Cc1noc(C)c1NC(=O)N(C)C[C@H]1Oc2ccc(NC(=O)NC3CCCCC3)cc2C(=O)N([C@H](C)CO)C[C@@H]1C returned gsp antagonist 14.9%, ClpP mod 1.1% and CtBP-E1A inh 3.4.
Screening COc1ccc(NC2CCCN(C(=O)C3(C)CCCCC3)C2)cc1OC (stereo not drawn) returned gsp antagonist -15.0%, Sfp PPTase inh -0.2%, ClpP mod 0.8%, Menin MLL FP FL -5.4, CtBP-E1A inh -13.1, gsp ag -18.8% and TRPV1 PAM -5.3.
Screening O=C1C(=O)N(CCN2CCOCC2)C(c2ccccn2)/C1=C(/O)c1ccc(Cl)cc1 (stereo not drawn) returned gsp antagonist 5.9%, Sfp PPTase inh -5.9%, ClpP mod -2.9%, Menin MLL FP FL 1.9, CtBP-E1A inh -3.7, gsp ag inconclusive and TRPV1 PAM 7.7.
CCC(C)(C)NC(=O)CN(C(=O)CCC(=O)Nc1nccs1)c1cccc(C)c1C was read as gsp antagonist -4.2%, Sfp PPTase inh 6.0%, ClpP mod 1.2%, Menin MLL FP FL -4.3, CtBP-E1A inh -0.4, gsp ag -4.3%[15.4 µM] and TRPV1 PAM -2.2.
COc1ccc2c(Cl)c(C(=O)NCC3CCCO3)sc2c1Cl (stereo not drawn) was read as Sfp PPTase inh -5.0%, Menin MLL FP FL 4.1 and TRPV1 PAM -3.4.
For O=S(=O)(Nc1ccc(Cl)cn1)c1ccc2c(c1)OCCO2 the results were gsp antagonist 3.9%, ClpP mod 1.9%, CtBP-E1A inh 15.7, gsp ag -5.0%[15.4 µM] and TRPV1 PAM 15.0.
COC(=O)c1ccc(N2NC(=O)/C(=C/c3cc(OC)c(OC)c(OC)c3)C2=O)cc1 was read as gsp antagonist 12.6µM*, Sfp PPTase inh inconclusive, ClpP mod -2.3%, Menin MLL FP FL 0.1, CtBP-E1A inh -4.8, gsp ag inconclusive and TRPV1 PAM 5.4.
CCOC(=O)C1C(=O)CC(C)(O)C(C(=O)OCC)C1c1ccccc1OC (stereo not drawn) was read as gsp antagonist 9.0%, Sfp PPTase inh 15.8%, ClpP mod -1.3%, Menin MLL FP FL -1.6, CtBP-E1A inh 4.3, gsp ag -27.6% and TRPV1 PAM -3.0.
For Cc1ccc(C)c2sc(NC(=O)c3nc4ccccc4s3)nc12 the results were gsp antagonist 3.9%, Sfp PPTase inh 9.9%, ClpP mod -9.4%, Menin MLL FP FL 4.0, CtBP-E1A inh 2.3, gsp ag 0.9% and TRPV1 PAM 9.2.
Screening Cc1c(Cl)ccc2c(C(=O)O)cc(-c3ccccc3)nc12 returned gsp antagonist -26.6%, Sfp PPTase inh 4.2%, ClpP mod -15.6%, Menin MLL FP FL 2.3, CtBP-E1A inh -9.5, gsp ag inconclusive and TRPV1 PAM 0.5.
O=C(CN1CCOCC1)NNC(=O)c1ccc([N+](=O)[O-])cc1 was read as gsp antagonist 7.9%, Sfp PPTase inh -2.8%, ClpP mod 2.5%, gsp ag 16.6% and TRPV1 PAM -2.5.
For Cc1c(-c2cccc(Cl)c2)nc2ccccc2c1C(=O)OCC(=O)Nc1ccc2c(c1)OCO2 the results were gsp antagonist -7.0%, Sfp PPTase inh 14.6%, ClpP mod -0.2%, Menin MLL FP FL 7.1, CtBP-E1A inh 2.4, gsp ag -5.6%[15.4 µM] and TRPV1 PAM -0.3.
Screening C=CC[C@@H](Cc1ccc(F)cc1)C(=O)OC[C@H]1CCCN1C(=O)[C@@H](CC=C)CC(=O)N(CCO)Cc1ccccc1 returned gsp antagonist -21.5%, ClpP mod 2.0% and CtBP-E1A inh 0.0.
Screening COc1cccc(CN(C)CC(=O)Nc2cccc3ccccc23)c1 returned gsp antagonist 5.9%, Sfp PPTase inh -25.0%, ClpP mod 30.3%, Menin MLL FP FL -0.2, CtBP-E1A inh -11.0, gsp ag 14.1%[15.4 µM] and TRPV1 PAM -5.6.
CCCN1CC(O)=C(C#N)C1=O was read as gsp antagonist 6.9%, Sfp PPTase inh -3.8%, ClpP mod -3.9%, Menin MLL FP FL -3.3, CtBP-E1A inh 7.8, gsp ag -12.8%[15.4 µM] and TRPV1 PAM -5.4.
For Cc1ccc(Cl)cc1N1CCN(S(=O)(=O)c2c(C(=O)N3CCOCC3)c(C)n(C)c2C)CC1 the results were gsp antagonist -15.0%, Sfp PPTase inh -7.9%, ClpP mod -1.7%, Menin MLL FP FL -0.2, CtBP-E1A inh -17.0, gsp ag inconclusive and TRPV1 PAM 4.8.
For Cc1nonc1OCCNc1ccc([N+](=O)[O-])cc1[N+](=O)[O-] the results were gsp antagonist 4.7%, Sfp PPTase inh 23.9%, ClpP mod -1.2%, Menin MLL FP FL -2.9, CtBP-E1A inh -12.8, gsp ag 0.0% and TRPV1 PAM 1.6.
COc1ccc(Cl)cc1NC(=O)CN(C)C(=O)c1cn(-c2ccccc2)nc1-c1cccs1 was read as ClpP mod -16.3%, CtBP-E1A inh -8.8 and gsp ag 4.4%.
Screening CN(C)S(=O)(=O)c1cccc(NC(=O)COC(=O)CCC(=O)c2cccs2)c1 returned gsp antagonist 5.0%, Sfp PPTase inh -8.9%, Menin MLL FP FL 32.9[activator], CtBP-E1A inh 3.9, gsp ag 9.8%[15.4 µM] and TRPV1 PAM 0.9.
Cc1ccc(S(=O)(=O)N(CC(=O)N/N=C/c2ccccc2C(=O)O)c2cc(Cl)cc(Cl)c2)cc1 was read as gsp antagonist -2.3%, Sfp PPTase inh 16.9%, ClpP mod 0.6%, Menin MLL FP FL 5.3, CtBP-E1A inh -0.4, gsp ag 10.3% and TRPV1 PAM 6.6.
Cc1cc(N2CCCCC2)nc(SCC(=O)c2ccccc2)n1 was read as gsp antagonist inconclusive, Sfp PPTase inh 3.0%, ClpP mod -0.5%, Menin MLL FP FL 1.1, CtBP-E1A inh -13.8, gsp ag -24.6% and TRPV1 PAM 0.9.
Cc1cc(C)c2nc(N3CCC(C(=O)NCc4cccnc4)CC3)sc2c1 was read as gsp antagonist -0.8%, Sfp PPTase inh -1.4%, ClpP mod -2.1%, Menin MLL FP FL -2.1, CtBP-E1A inh -1.5, gsp ag 1.6% and TRPV1 PAM -5.8.
For CCOC(=O)C(CCSC)Nc1nc(Cl)nc(Nc2ccc(Cl)cc2)n1 (stereo not drawn) the results were gsp antagonist -5.5%, ClpP mod -5.5% and gsp ag -0.8%.
